NS1 function inh = inhibitors of influenza NS1 protein function; S. cerevisiae slowed by influenza A NS1, growth recovery by OD600; Potency, µM (series often up to 46.1 µM), inactives show at the highest dose activity, positive = more growth; 270,000 compounds, 0.4% hits; AID 2326; also: actives are rising curves; nearly all actives have a fitted effect of over 50% in size
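A cell-based growth assay was used: compounds that relieve NS1-induced slow growth of budding yeast raise OD600. Assay medium was yeast nitrogen base with ammonium sulphate and -URA supplement, pH 6.0, with 2% galactose.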
StopGo reporter = lowers the luciferase signal of an FMDV 2A StopGo reporter. human cells with a luciferase reporter of 2A StopGo recoding; control for the full effect not named in the record. Potency, µM (titrated, usually from 57.9 µM), for the others: top-dose signal change, negative = less light. 410,000 compounds, 1.2% hits. AID 1159524; active = well fitted falling curve with a large enough effect; inconclusive = small, poorly fitted or top-dose-only effect; inactive = no such curve, though single readings can be large or run the other way; tested in HEK293T cells; also: % is scaled to controls: 0 for no effect and ±100 for the full control effect; nearly all actives have a fitted effect of over 45% in size; luciferase light after 4 h
RE007 growth inh = less growth of the S. pombe RE007 Vpr strain. S. pombe RE007 Vpr strain, BacTiter-Glo ATP luminescence, 24 h; control for the full effect not named in the record. Potency, µM (highest dose often 92.2 µM), for inactives: at the highest dose activity change, negative = less growth. 360,000 compounds, 0.21% hits. AID 651644; active = well fitted falling curve with a large enough effect; inconclusive = small, poorly fitted or top-dose-only effect; inactive = no such curve, though single readings can be large or run the other way;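 also: % is scaled to controls: 0 for no effect and ±100 for the full control effect; nearly all actives have a fitted effect of over 50% in size; the assay follows cell death caused by Vpr and the record does not say whether a fall means rescue or toxicity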
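Fission yeast strain RE007, carrying one chromosomally integrated HIV-1 vpr copy, was seeded at OD 0.01 in PMG+AL medium with 23 nL pinned compound. After 24 h at 30 °C and 99% humidity, viability was read by BacTiter-Glo luminescence.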
SARS PLpro yeast = blocks SARS-CoV papain-like protease in a yeast assay; S. cerevisiae expressing SARS-CoV PLpro, growth rescue; control for the full effect not named in the record; Potency, µM (top dose mostly 32.9 µM), for inactives: top-dose activity, positive = growth rescue; 330,000 compounds, 0.19% hits; also: 0% is about no effect; nearly all actives have a fitted effect of over 55% in size; growth read by luminescence after 48 h
Cruzain inh noDet = blocks cruzain activity in detergent-free assay; 200,000 compounds, 2.3% hits; purified cruzain, Z-FR-AMC fluorescence, no detergent; AID 1476; P25779; Potency, µM, for inactives: max response, negative = inhibition, usual class: inhibitors; active = well fitted curve in the direction sought with a large enough effect; inconclusive = small, poorly fitted or top-dose-only effect, or another doubt; inactive = no such curve, though single readings can be large; an effect the other way counts as inactive or inconclusive;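 also: plate controls were enzyme without inhibitor for no effect and buffer without enzyme for full effect; nearly all actives have a fitted effect of over 40% in size; top concentration of the series not given in the record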
Target sequence (P25779 123-467 limits assumed): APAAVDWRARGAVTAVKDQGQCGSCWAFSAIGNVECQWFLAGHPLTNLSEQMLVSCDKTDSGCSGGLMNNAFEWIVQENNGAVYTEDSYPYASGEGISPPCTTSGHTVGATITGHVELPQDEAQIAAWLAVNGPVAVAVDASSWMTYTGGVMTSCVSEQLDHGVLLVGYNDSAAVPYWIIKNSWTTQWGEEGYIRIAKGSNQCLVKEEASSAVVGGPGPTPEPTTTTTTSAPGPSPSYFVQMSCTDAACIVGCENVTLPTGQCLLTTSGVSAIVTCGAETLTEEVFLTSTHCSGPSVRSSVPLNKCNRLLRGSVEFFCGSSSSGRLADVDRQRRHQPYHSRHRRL
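Detergent-free condition (0.00005% Triton X-100) in acetate buffer pH 5.5 with DTT. 1.5 nM enzyme and compound were pre-mixed 15 min, then 2 uM Z-FR-AMC substrate added; reaction progress from fluorescence change between first and third reads (60 s).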
Cruzain Triton = cruzain (T. cruzi) inhibition with detergent. Potency, µM, inactives show max response, negative = inhibition, hits mostly inhibitors. AID 1478. 200,000 compounds, 0.43% hits. P25779. purified cruzain, Z-FR-AMC fluorescence, 0.01% Triton; active = well fitted curve in the direction sought with a large enough effect; inconclusive = small, poorly fitted or top-dose-only effect, or another doubt; inactive = no such curve, though single readings can be large; an effect the other way counts as inactive or inconclusive;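 also: plate controls were neutral wells for no effect and buffer without enzyme for full effect; nearly all actives have a fitted effect of over 40% in size; top concentration of the series not given in the record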
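Compounds were screened in titration against cruzain (1.5 nM) with 0.01% Triton X-100 to counter colloidal aggregation. Activity was the AMC fluorescence increase over 60 s after adding 2 uM Z-FR-AMC at pH 5.5.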
MARV entry inh = Marburg virus entry inhibition; Potency, µM (series often up to 37.8 µM), without a hit: top-dose activity change, negative = inhibition, most hits filed as inhibitors; AID 540276; Marburg virus pseudotyped entry inhibition, cell reporter; control for the full effect not named in the record; about a third of the inactives were read at about 46 µM; 300,000 compounds, 1.8% hits; active = well fitted inhibition curve with a large enough effect; inconclusive = small, poorly fitted or top-dose-only effect, or effect the other way; inactive = flat fitted curve, though single readings scatter; tested in HEK293 cells; about a fifth of its hits are not listed in these tables; also: % is scaled to controls: 0 for no effect and ±100 for the full control effect; luciferase read-out
Lassa entry inh = inhibitors of Lassa virus binding or cell entry; Lassa virus pseudotype entry inhibition, cell reporter; control for the full effect not named in the record; Potency, µM (top dose mostly 37.9 µM), for the others: at the highest dose activity change, negative = inhibition, most hits filed as inhibitors; 300,000 compounds, 1.2% hits; active means well fitted inhibition curve with a large enough effect; inconclusive means small, poorly fitted or top-dose-only effect, or effect the other way; inactive means flat fitted curve, though single readings scatter; tested in HEK293 cells; also: % is scaled to controls: 0 for no effect and ±100 for the full control effect; nearly all actives have a fitted effect of over 50% in size; luciferase read-out
Numbers without * were called inactive; ? = inconclusive; · = not tested or not shown; [ ] = remark or other dose. Unless noted, calls follow the shape of the dose curve; as a rule, active means well fitted rising curve with a large enough effect; inconclusive means small, poorly fitted or top-dose-only effect; inactive means no such curve, though single readings can be large or run the other way. Potency is read from the fitted curve at half-maximal effect.

SMILES	NS1 function inh	StopGo reporter	RE007 growth inh	SARS PLpro yeast	Cruzain inh noDet	Cruzain Triton	MARV entry inh	Lassa entry inh
CC(C)(C)N(Cc1ccccc1)C(=O)COC(=O)Cn1cnc2ccccc2c1=O	·	1%	2%	0%	·	·	8%[46.1 µM]	7%[46.1 µM]
S=C(Nc1ccc(Cl)cc1)NC1CCCCC1	-10%	70%[activator]	12%	-3%	·	·	-29%[46.1 µM]	?
COc1cc2c(cc1OC)n(CC(=O)c1ccc(C)cc1)c(=O)n1nc(CCn3nc(C)cc3C)nc21	·	-4%	·	·	-14%	2.6%	·	2%[46.1 µM]
C/C(=N\Nc1ccc(Cl)cc1)c1ccncc1	-43%	30%	-14%	-7%	·	·	-28%	-14%
CCOc1ccccc1NC(=O)CSc1nc2[nH]ncc2c(=O)[nH]1	·	-2%	-10%	-5%	·	·	-1%[46.1 µM]	6%
Cc1ccc(-n2c(SCC(=O)N3CCC(C(=O)O)CC3)nc3ccccc3c2=O)cc1C	11%	19%	2%	3%	·	·	?	0%[46.1 µM]
CC(Oc1ccc(F)cc1)C(=O)Nc1cc(S(=O)(=O)N2CCOCC2)ccc1N1CCCC1 (stereo unspecified)	5%	-20%	-1%	-1%	·	·	·	·
COc1ccc(N(CC(=O)Nc2ccc(S(=O)(=O)N3CCOCC3)cc2)S(=O)(=O)c2ccccc2)cc1	19%	-16%	8%	2%	17%	-0.4%	?	?
Cc1cc(C)n2nc(C(=O)OCC(=O)c3cc(C)n(CC4CCCO4)c3C)nc2n1 (stereo unspecified)	·	-3%	0%	0%	·	·	4%[46.1 µM]	-1%[46.1 µM]
COc1cccc(CNCCSc2nnnn2C)c1OC	2%	-16%	-10%	-1%	2%	3.2%	9%	-18%
CCOC(=O)c1cnn(-c2ccccc2)c1-n1cccc1	-7%	-22%	?	-1%	-1%	-2.0%	3%	-7%
COc1cccc(CC2(CO)CCCN(Cc3sc(N4CCCC4)nc3Cl)C2)c1 (stereo unspecified)	2%	-25%	-1%	0%	·	·	?	-2%
NS(=O)(=O)c1ccc(NS(=O)(=O)/C=C/c2ccccc2)cc1	-4%	15%	0%	1%	7%	1.6%	12%	21%
CCc1ccc(NC(=O)CSc2nc3nccnc3c(=O)n2CCc2c[nH]c3ccccc23)cc1	·	-10%	·	·	?	-4.9%	·	?
CC(Nc1ccc(F)cc1)=[N+](C)CCNS(=O)(=O)c1ccc(Cl)cc1	8%	-15%	-6%	18%	·	·	·	·
COc1ccc(S(=O)(=O)Nc2cccc(C)c2C)c2cccnc12	24%	19%	4%	1%	·	·	?	?
O=C(O)C1CCCN1c1ncccn1 (stereo unspecified)	1%	-3%	9%	7%	-2%	7.7%	-11%	-9%
CCCCC(=O)Nc1ccc2c(c1)nc1n2CCOC1	1%	55%[activator]	22%	-3%	-7%	1.3%	-2%	4%
Cc1oc2ncn(CC(C)C)c(=O)c2c1C(=O)N(Cc1ccccc1)C(C)C	·	13%	·	·	4%	-0.2%	·	10%[46.1 µM]
O=C(Nc1ccc(Cl)cc1)N(CCCN1CCOCC1)Cc1cccs1	-13%	6%	3%	?	-11%	0.4%	·	·
Cc1cc(OC(=O)c2cccc(Br)c2)c([N+](=O)[O-])c(=O)[nH]1	-26%	1%	10%	2%	·	·	·	·
CC(C)c1nnc(NC(=O)CSc2ccccc2)s1	5%	11%	16%	-7%	-1%	-0.1%	?	13%
CCCCCC1CCC(c2n[nH]c(=S)n2C)CC1 (stereo unspecified)	-8%	7%	3%	1%	·	·	?	?
Cc1ccc(Sc2ncccc2C(=O)O)cc1	13%	2%	11%	-1%	-9%	5.8%	?	8%
O=C(Oc1ccc(Br)cc1)c1cccnc1	-9%	-6%	-15%	4%	·	·	?	12%
SMILES	NS1 function inh	StopGo reporter	RE007 growth inh	SARS PLpro yeast	Cruzain inh noDet	Cruzain Triton	MARV entry inh	Lassa entry inh
Cc1nn(Cc2noc(C(=O)NCc3cccc(F)c3)n2)c(C)c1Br	·	-18%	·	·	-5%	-5.2%	4%[46.1 µM]	-28%[46.1 µM]
CC(=O)c1cccc(NC(=O)CN(C2CCCCC2)S(C)(=O)=O)c1	-4%	-16%	-9%	4%	6%	8.5%	0%	-3%
Cc1cc(C)nc(SCc2nnc(SCC(=O)Nc3ccc(Cl)c(C(F)(F)F)c3)o2)n1	-56%	·	10%	-12%	?	-6.5%	-8%	14%
O=C(COC(=O)C1CCC1)Nc1ccccc1Sc1ccccc1	-4%	-14%	-3%	-38%	-1%	-5.2%	?	15%
CC(=O)c1cccc(NC(=O)c2nc(-c3ccc(C)cc3)n3c2CCCCC3)c1	·	?	·	·	-7%	-6.1%	·	-8%[46.1 µM]
COc1ccc(CCNC(=O)CCNC(=O)c2ccc([N+](=O)[O-])cc2)cc1	1%	0%	-18%	-1%	·	·	·	·
CCn1c(CNc2ccccc2Cl)nnc1SCCN1CCCCC1	-2%	-7%	-22%	-3%	5%	2.6%	-19%	-17%
O=C(CN(C(=O)CCC(=O)Nc1nccs1)c1cccc(C(F)(F)F)c1)NCC1CCCO1 (stereo unspecified)	-8%	5%	26%	2%	·	·	2%[46.1 µM]	·
CC1CCN(c2nc3c(S(=O)(=O)c4ccc(Cl)cc4)nnn3c3ccsc23)CC1	·	2%	·	·	3%	-2.9%	·	-8%[46.1 µM]
O=C(CSCc1ccc(Cl)cc1)N1CCOCC1	7%	0%	-3%	7%	1%	-0.7%	17%	21%
Cc1ccc(NC(=S)N2CCN(Cc3ccccc3)CC2)cc1	·	14%	-12%	21%	·	·	-26%[46.1 µM]	-10%[46.1 µM]
CCOC(=O)N1CCN(C(=O)CSc2ccc(-c3ccc(OC)c(OC)c3)nn2)CC1	·	0%	6%	3%	·	·	?	-37%
CC(C)(C)c1ccc(C(=O)NCC(=O)N/N=C/c2cccs2)cc1	7%	-2%	-7%	-1%	·	·	·	·
COc1ccc2nc(/N=C/c3c(C)[nH]n(-c4ccc(C)cc4)c3=O)sc2c1	3%	-13%	?	-79%	?	-1.5%	15%	5%
COc1cc(/C=N/NC(=O)c2cccc([N+](=O)[O-])c2)ccc1O	2%	17%	8%	-1%	·	·	·	·
O=c1c2cc([N+](=O)[O-])ccc2nc(CN2CCN(c3ccccn3)CC2)n1-c1ccccc1F	0%	-1%	-7%	0%	·	·	14%[46.1 µM]	22%
O=C1CNC(=O)/C(=C/c2cccs2)N1	·	21%	-19%	0%	·	·	?	-14%
OC1(CNCc2cn[nH]c2-c2cc3ccccc3o2)CCCCC1	7%	-25%	5%	1%	·	·	7.9µM*	-30%
NS(=O)(=O)c1ccc(CCNC(=O)c2coc3ccccc3c2=O)cc1	2%	-6%	13%	2%	·	·	3%	3%
COc1ccccc1N1CCN(CCCNC(=O)C2CCCN(c3ncnc4c3nc3n4CCCCC3)C2)CC1 (stereo unspecified)	-7%	?	-15%	1%	·	·	·	·
Cc1c(NC2=CC(=O)CC(C)(C)C2)c(=O)n(-c2ccccc2)n1C	·	13%	3%	-6%	·	·	-3%[46.1 µM]	16%
CCOC(=O)c1[nH]c(C)c(CCC(=O)Nc2cc(Cl)c(OC)cc2OC)c1C	·	-2%	·	·	-18%	0.9%	·	7%[46.1 µM]
Cc1ccc(NC(=O)c2c(NC(=O)c3ccco3)sc3c2CCC(C(C)(C)C)C3)c(C)c1 (stereo unspecified)	·	-6%	·	·	-10%	-1.1%	-4%[46.1 µM]	4%[46.1 µM]
Cc1cc([N+](=O)[O-])cc2c1-c1ncccc1C2=Nc1ccccc1	21%	-13%	-1%	-3%	-29%	0.9%	4%	0%
Cc1ccc(NC(=O)CSc2nc(=O)n(CCN(C)C)c3c2CCCC3)c(C)c1	·	1%	-5%	0%	·	·	21%	-4%
SMILES	NS1 function inh	StopGo reporter	RE007 growth inh	SARS PLpro yeast	Cruzain inh noDet	Cruzain Triton	MARV entry inh	Lassa entry inh
O=C(O)Cn1cc(C(=O)c2ccco2)c2ccccc21	-2%	4%	2%	4%	-10%	-1.1%	-3%	15%
Cc1ccc(S(=O)(=O)N2CCN(c3ncnc4c3cnn4-c3ccccc3)CC2)cc1	-9%	-12%	4%	1%	-26%	0.5%	5%	-18%
c1ccc(-c2cc(-c3nnc4n3N=C(c3ccc5ccccc5c3)CS4)[nH]n2)cc1	?	?	-15%	-11%	25µM*	-3.2%	?	-67%[14.3 µM]
CCOc1ccccc1C(=O)NCC(=O)O	1%	-14%	7%	1%	·	·	·	·
COc1ccc(CCNC(=O)c2cnn3ccccc23)c(OC)c1OC	-14%	-5%	4%	10%	-2%	-1.6%	·	·
CC(=O)Nc1ccc(SCC(=O)OCC(=O)NC(=O)NCCC(C)C)cc1	·	-10%	12%	0%	·	·	7%[46.1 µM]	-18%[46.1 µM]
CSc1ccccc1NC(=O)CSCc1ccc(Br)cc1	-69%	?	-16%	-2%	-3%	-6.1%	?	1%
Cc1nc2c(-c3ccc(F)cc3)c(C)nn2c(C)c1CCC(=O)N1CCOCC1	3%	-20%	5%	-3%	?	1.2%	8%	·
CCc1ccc(OCc2nc(-c3ccc(OC)c(OC)c3)no2)c(Br)c1	·	11%	·	·	?	-7.3%	?	26%[46.1 µM]
COc1ccc(C2C(C(=O)Nc3ccc(C)cc3C)=C(C)Nc3nc(SCc4cccc(C)c4)nn32)c(OC)c1 (stereo unspecified)	·	-9%	·	·	1%	-0.3%	28%[46.1 µM]	-24%[46.1 µM]
CCOC(=O)c1ncn2c1C(=O)OC2(C)C	-4%	-11%	3%	17%	2%	0.4%	-7%	-7%
CCc1cc2cccc(C)c2nc1SCC(=O)NC1CCCC1	3%	22%	-7%	-4%	·	·	-8%[46.1 µM]	7%[46.1 µM]
CCOc1ccc(/C=N/NC(=O)NC23CC4CC(CC(C4)C2)C3)cc1O	-16%	-19%	3%	-11%	·	·	·	·
CC(C)CNC(=O)CCc1nc(-c2ccccc2)no1	-8%	-3%	7%	0%	·	·	-2%	-9%
CC(C)(C)c1nc(N)nc(=O)[nH]1	-2%	-3%	-8%	0%	·	·	·	·
Cc1nn(Cc2ccccc2Cl)c(Cl)c1C(=O)OC(C(=O)NC(N)=O)C(C)C (stereo unspecified)	2%	?	·	-16%	-1%	-3.7%	-2%	-16%
N/C(=N\OC(=O)/C=C/c1ccccc1)c1cccnc1	-4%	40%[activator]	-2%	0%	·	·	·	·
